Screening results from PubChem.
Vaccinia mCherry = vaccinia inhibition (mCherry reporter); Potency, µM (doses to about 36.5 µM), inactives show top-dose activity change, negative = inhibition, most hits filed as inhibitors; Vaccinia virus mCherry reporter infection, fluorescence; about a quarter of the inactives have no number; AID 720579; 310,000 compounds, 0.63% hits; active = well fitted inhibition curve with a large enough effect; inconclusive = small, poorly fitted or top-dose-only effect; inactive = no such curve, though single readings can be large or run the other way; tested in A549 cells; further: nearly all actives have a fitted effect of over 35% in size; inactives centre near -10
Vaccinia Venus = vaccinia inhibition (Venus reporter). Vaccinia virus Venus reporter expression, fluorescence. Potency, µM (titrated, usually from 36.5 µM), without a hit: at the highest dose activity change, negative = inhibition, usual class: inhibitors. 330,000 compounds, 0.46% hits. AID 720580; active means well fitted inhibition curve with a large enough effect; inconclusive means small, poorly fitted or top-dose-only effect; inactive means no such curve, though single readings can be large or run the other way; tested in A549 cells; further: nearly all actives have a fitted effect of over 30% in size; inactives centre near -10
Numbers without * were called inactive; i = inactive; ? = inconclusive; · = no result given; & = joins results of further samples; [ ] = remark or other dose. On the % scale 0 is the no-effect control and ±100 the full control effect; potency means the concentration at half of the fitted maximal effect.

Start of the listing, in advance (3 entries):
SMILES	Vaccinia mCherry	Vaccinia Venus
O=C(NCCCn1ccnc1)c1cc(S(=O)(=O)N2CCOCC2)ccc1F	-20.2%	1.0%
CCOc1cc(C(=O)N2CCC(CC3CC(c4cccc(Br)c4)=NO3)(C(=O)NCC3CCCCC3)CC2)cc(OCC)c1OCC (stereo not given)	i	-27.4%
COc1cccc(N2CCN(Cc3ccco3)CC2)c1	i	0.8%

Main list, previewed entries included:
SMILES	Vaccinia mCherry	Vaccinia Venus
O=C(NCCCn1ccnc1)c1cc(S(=O)(=O)N2CCOCC2)ccc1F	-20.2%	1.0%
CCOc1cc(C(=O)N2CCC(CC3CC(c4cccc(Br)c4)=NO3)(C(=O)NCC3CCCCC3)CC2)cc(OCC)c1OCC (stereo not given)	i	-27.4%
COc1cccc(N2CCN(Cc3ccco3)CC2)c1	i	0.8%
COc1ccc(-n2ncc3c(=O)n(CC(C)=O)cnc32)cc1	-21.9%	-14.1%
CC(C)[C@H]1COCCS(=O)(=O)N1Cc1ccccc1F	?	1µM*
CCOc1ccc(N(CC(=O)Nc2cc(OC)cc(OC)c2)S(=O)(=O)c2c(C)[nH]c(=O)[nH]c2=O)cc1	-13.3%&-5.0%	-13.4%&-0.3%
COc1ccc(OC)c(NC(=O)CSC2=Nc3ccccc3C3=NC(CC(=O)NCc4ccc5c(c4)OCO5)C(=O)N23)c1 (stereo not given)	-9.0%	-6.6%
COC(=O)C1=C(O)/C(=C\c2ccc(CNS(=O)(=O)c3ccc(Cl)cc3)o2)N=C1C	-14.8%	0.2%
COc1ccc(NC(=O)CSc2c(C(C)C)cnc3c2c(=O)n(C)c(=O)n3C)c(OC)c1	-14.0%	-13.0%
CSc1ncc(CN2CCN(CCC(C)C)C(CCO)C2)cn1 (stereo not given)	i	-2.7%
CCOC(=O)N1CCc2c(sc3c2c(=O)n(CCc2ccccc2)c(=O)n3Cc2ccc(C)cc2C)C1	-17.5%	-13.1%
CCCCCc1ccc(-c2cn(CCCOCc3ccccc3)nn2)cc1	-15.8%&-2.9%	-12.9%&-9.4%
C[C@@H]1CN([C@H](C)CO)C(=O)CCCn2nncc2CO[C@@H]1CN(C)S(=O)(=O)c1ccc(-n2cccn2)cc1	i	-18.1%
CCc1c(C)nc2nc(SCc3ccccc3)[nH]n2c1=O	-11.4%	-1.3%
CC(Oc1ccc(Cl)cc1Cl)C(=O)Nc1cccnc1 (stereo not given)	·	-23.2%
CCOC(=O)/C(C#N)=C/c1cccc([N+](=O)[O-])c1	i	-7.3%
COc1ccc([C@@H]2C[C@H]3CN(Cc4ccccc4OC)C(=O)[C@]34CCCN24)cc1C	-3.1%	-3.7%
Cc1ccc(Nc2c(-c3cccnc3)nc3ccc(Br)cn23)cc1	-14.6%	2.1%
OCCNCCOCCOc1ccccc1-c1ccccc1	-20.0%	-9.4%
NC(=O)CC[C@H](NC(=O)c1ccc(F)cc1)C(=O)N1CCN(Cc2ccc3c(c2)OCO3)CC1	-19.4%	-7.0%
CC(CC(=O)O)CC(=O)Nc1cccc([N+](=O)[O-])c1 (stereo not given)	-19.3%	-11.2%
O=C(O)C(Oc1ccc(Cl)cc1)c1ccc(Cl)cc1 (stereo not given)	i	4.1%
CCCCOc1ccc(N2C(=O)CC(N(O)c3ccccc3)C2=O)cc1 (stereo not given)	i	-15.6%
Nc1nc(N2CCN(c3ccccc3)CC2)n[nH]1	5.1%	2.7%
CCN1C(=O)c2cccc3c(NC(=O)C(C)(C)C)ccc1c23	·	-3.2%
O=C(c1ccco1)N1N=C(c2ccncc2)CC1(O)C(F)(F)F (stereo not given)	i	-15.4%
Cc1ccc(C(=O)OCC(=O)N2CCc3ccccc32)cc1	-14.3%	3.5%
CCn1c(CN2CCCCC2)nc2cc(NC(=O)COc3cc(C)ccc3C(C)C)ccc21	-29.1%	-17.1%
Cc1c(C(=O)Nc2cccc(C(F)(F)F)c2)oc2ccc(S(=O)(=O)N(C)C3CCCCC3)cc12	-12.7%	-14.0%
CCOc1ccccc1N1CC(c2nc3ccccc3n2CCCOc2ccccc2)CC1=O (stereo not given)	-22.1%	-12.3%
CCN(CC)CC(C)CNC(=O)c1cc(-c2ccc(Br)s2)nc2ccccc12 (stereo not given)	?	?
O=C(c1nc2ccccn2c1CN1CCN(c2ccccc2O)CC1)N1CCCC1	-12.8%	-22.9%
O=C(Cn1c(=O)sc2ccccc21)NCc1ccco1	-5.3%	-2.3%
COc1ccc(N2C(N)=NC(N)=NC23CCCC3)cc1	·	?
O=C(c1ccccc1)n1ccc2ccccc21	·	-0.2%
COC1=CC(=O)CC(C)C12Oc1c(Cl)c(OC)cc(OC)c1C2=O (stereo not given)	-4.0%	-19.5%
COc1ccc(NC(=O)c2cc([N+](=O)[O-])ccc2N2CCCCC2)cc1	?	-19.9%
COc1ccc(CNC(=O)c2c[nH]c3ccccc3c2=O)cc1	-29.9%	-19.7%
O=c1cc(CN2CCc3ccccc32)c2ccc(O)cc2o1	i	-26.9%
Cc1cccc(C)c1NC(=O)C(=O)c1cn(C)c2ccccc12	-1.5%	-3.3%
COc1ccc(CN2C(=O)CSCC2(C)C(=O)NC(C)C)cc1 (stereo not given)	-9.7%	-11.4%
O=C(NCC1CCCCC1)c1ccc2nc([C@@H]3O[C@H](CO)[C@@H](O)[C@H]3O)[nH]c2c1	i	-7.0%
CCCCCCn1cc(C(=O)O)c(=O)c2cc(F)c(N3CCN(C)CC3)cc21	i	-14.5%
COc1ccc(-c2cc3c(=O)n(CC(=O)NC4CCN(Cc5ccccc5)CC4)ncn3n2)cc1	·	10.7%
Cc1ccc(C)c(NC(=O)N2CCC(N3CCN(Cc4ccc(F)cc4)C(=O)C3=O)CC2)c1	-12.1%	-0.8%
Cc1ccc(N(CC(=O)NC2CCCC2)C(=O)CNC(=O)c2cccs2)c(C)c1	-13.0%	-9.6%
OCc1cnc(SCc2ccc(F)cc2)n1Cc1ccc(F)cc1	-7.9%	-17.1%
N#Cc1ccc(NC(=O)COCc2cc(-c3ccco3)on2)cc1	-20.1%	-9.9%
O=C(CC1C(=O)N(c2ccccc2)C(=O)N1Cc1ccco1)Nc1ccccc1 (stereo not given)	-0.5%	-7.0%
COc1ccc(CCNC(=O)C/C(C)=N/NC(=O)c2ccc([N+](=O)[O-])cc2Cl)cc1OC	-15.6%	-15.8%
CC(NC(=O)c1ccc(F)cc1)c1ccccc1 (stereo not given)	·	-10.2%
CC(C)(C)c1ccc(S(=O)(=O)N2CCC(c3nc4ccc(Cl)cc4[nH]3)CC2)cc1	?	?
O=C1C=CC(=O)N1c1ccc(OC(F)F)cc1	i	-21.1%
CCCCc1cc(=O)oc2cc(C)cc(OC(C)C(=O)NC(Cc3c[nH]c4ccc(O)cc34)C(=O)O)c12 (stereo not given)	-4.5%	-6.1%
Cc1[nH]c2ccccc2c1/C=C/C(=O)c1ccccc1	?	-12.3%
CCCn1c(=S)[nH]c2cc(C(=O)N3CCN(c4ccccc4OC)CC3)ccc2c1=O	-15.7%	?
Cn1c(=O)c2[nH]c(NCC3CCCO3)nc2n(-c2ccccc2)c1=O (stereo not given)	·	-8.7%
Cc1cc(OCc2n[nH]c(=S)n2-c2ccccc2)ccc1Cl	-17.2%	-4.4%
Cc1c(OCC(=O)NCCN2CCOCC2)ccc2c3c(c(=O)oc12)CCC3	-5.9%	-17.5%
COC(=O)C1=C(C(=O)OC)C(c2cc(Br)ccc2O)c2sc(=O)[nH]c2S1 (stereo not given)	i	57.5%[activator]

Following part.
SMILES	Vaccinia mCherry	Vaccinia Venus
CCOC(=O)c1sc(NC(=O)CCCn2nc([N+](=O)[O-])cc2C)c(C(=O)OCC)c1C	-10.9%	-11.7%
CCCCN(CCCC)c1nn[nH]n1	-10.9%	-3.9%
CCC(CO)NC(=O)c1cc2c(s1)CCC2 (stereo not given)	-26.7%	-12.7%
C=CCNC(=O)/C(C#N)=C/c1c(C)nn(-c2ccccc2)c1Cl	i	-14.5%
c1csc(C(c2nnnn2C2CCCC2)N2CCCC3(CCCCC3)C2)c1 (stereo not given)	0.0%	10.3%
CCn1cc(C(=O)NCCC(=O)NCCCO)c(=O)c2cc3c(cc21)OCO3	i	-1.0%
CCOc1ccc(-n2c(C)nc3c(cnn3-c3ccc(C)cc3)c2=O)cc1	-9.3%[7.34 µM]	-13.8%[7.34 µM]
CCCNC(=O)C1CCN(c2cc(-c3ccccc3)nc3ncnn23)CC1	-11.6%	-8.2%
CC(OC(=O)Cc1c[nH]c2ccccc12)C(=O)Nc1ccccc1F (stereo not given)	-11.7%	-3.3%
O=[N+]([O-])c1ccccc1C(O)Cc1ccccn1 (stereo not given)	-23.0%	-4.0%
O=c1[nH]c(=O)n(Cc2ccccc2)c2c1CCC2	-6.4%	-14.3%
COc1ccc(-c2cc(C(=O)Nc3cc(C)on3)no2)cc1	i	-4.0%
CC1CCCN(C(=O)c2ccc(NS(=O)(=O)c3ccc4[nH]c(=O)[nH]c4c3)cc2)C1 (stereo not given)	-21.0%	-10.5%
CCOC(=O)[C@]12CCCC=C1N(CCC1=CCCCC1)C(=O)[C@H](CC(=O)NCCCN1CCCC1=O)C2	i	-27.6%
O=C(Cc1cccs1)Nc1nnc(C2CC2)s1	i	-12.3%
Cc1ccc(-n2cc(-c3ccccc3)[nH]c2=O)cc1F	·	-20.8%
Cc1ccc(C)c(NS(=O)(=O)c2ccc3c(c2)CCCN3C(=O)C2CCC2)c1	-28.1%	-27.4%
CC(OC(=O)c1ccc(F)c(S(=O)(=O)N2CCOCC2)c1)C(=O)NC1CCCC1 (stereo not given)	-10.5%	-12.4%
CC12CN3CC(C)(CN(C1)C3c1ccccc1Cl)C2O (stereo not given)	·	-7.9%
COc1ccc(-c2cn3cccnc3n2)cc1NC(=O)c1cccs1	?	-21.5%
Cc1onc(-c2ccccc2Cl)c1C(=O)N/N=C(\N)COc1ccc(Cl)cc1	-9.9%	-19.2%
Cc1ccnc(Nc2nc3ccccc3s2)n1	i	-3.6%
CC(C)(C)S(=O)(=O)N1Cc2cc(CO)cc(CCO)c2[C@@H]1CCO	-10.7%	1.3%
CC1(C)Oc2ccccc2OC1(O)c1ccc2ccccc2n1 (stereo not given)	-11.8%	-18.5%

One compound at a time (already shown). Screens in order: Vaccinia mCherry | Vaccinia Venus
Results for COc1ccc(-c2cn3cccnc3n2)cc1NC(=O)c1cccs1 → ? | -21.5%
Results for Cc1onc(-c2ccccc2Cl)c1C(=O)N/N=C(\N)COc1ccc(Cl)cc1 → -9.9% | -19.2%
Results for CCOC(=O)[C@]12CCCC=C1N(CCC1=CCCCC1)C(=O)[C@H](CC(=O)NCCCN1CCCC1=O)C2 → i | -27.6%

(cont.)
SMILES	Vaccinia mCherry	Vaccinia Venus
CCn1cc(/C=C/C(=O)NCc2c(C)nn(C)c2C)cn1	i	44.5%[activator]
Cc1cccc(N2CCN(C(=O)C3CCC(CNS(=O)(=O)c4cccs4)CC3)CC2)c1C (stereo not given)	?	?
CNC(=S)N/N=C/c1ccc(C(C)C)cc1	-4.6%	-18.9%
CC(C)OCCCn1c(SCC(N)=O)nc2c(sc3ccccc32)c1=O	0.3%	-7.8%
O=S(=O)(c1ccc(F)cc1)N1CCN(CC(O)COCC2CCCO2)CC1 (stereo not given)	i	-2.3%
CC(C)(C)c1cc(NC(=O)c2ccc(OC3CCCC3)cc2)no1	i	-7.9%
CCOC(=O)C(Sc1ncn[nH]1)c1ccccc1 (stereo not given)	-16.3%	-10.5%
CCCCOc1ccc(CNC(=O)CCCN2C(=O)CSc3c2c(C)nn3-c2ccccc2)cc1	-21.1%	-14.9%
CCC(C)/C(C)=N/NC(=O)CSc1nc2ccccc2[nH]1 (stereo not given)	-12.5%	-15.2%
Cc1onc(-c2ccccc2Cl)c1C(=O)OCC(=O)Nc1cccc(S(=O)(=O)N(C)C)c1	-18.9%	-9.6%
CCOc1ccc(CN(C(=O)c2cc3ccccc3oc2=O)C2CCS(=O)(=O)C2)cc1 (stereo not given)	-2.2%	-14.5%
CC(C)Cc1nnc(NC(=O)c2ccc3c(=O)n4c(nc3c2)CCC4)s1	-4.4%	-10.1%
O=C(CSc1nc(O)cc(=O)n1-c1ccc(Cl)c(Cl)c1)Nc1ccc(Cl)cc1Cl	i	-2.9%
Cc1ccc(C(=O)NCCCNC(=O)c2ccco2)cc1C	-7.7%	4.1%
C[C@H](CO)N1C[C@H](C)[C@H](CN(C)C(=O)Cc2ccccc2)OCc2cnnn2CCCC1=O	-9.4%	-5.5%
CCN1C(=O)CC(N2CCN(c3ccc(C(=O)c4ccccc4)cc3)CC2)C1=O (stereo not given)	·	?
CC(OC(=O)Cn1nnc2ccccc21)C(=O)NC1CCCC1 (stereo not given)	i	10.9%
CN(C)Cc1nc2ccccc2c(=O)n1CC#N	-1.7%	-10.6%
O=C(COC(=O)c1cnc(Cl)c(Cl)c1)NC1CC1	-24.7%	-8.5%
C[C@H]1CN([C@@H](C)CO)C(=O)Cc2cc(NC(=O)CCC(F)(F)F)ccc2O[C@H]1CN(C)Cc1ccc(-c2ccccc2)cc1	11.2µM*	?
COC(=O)CN1C(=O)C(O)(CC(=O)c2cccc(Br)c2)c2ccccc21 (stereo not given)	i	0.0%
Cc1ccc(-n2c(=O)c3sccc3n(CC(=O)NCC3CCCO3)c2=O)cc1F (stereo not given)	-5.4%	2.9%
Cc1c(Br)cc(C(=O)OC2CCN(C)CC2)c(C)c1C	-14.8%	-15.6%
COc1ccc(Cl)cc1CC1(C)C(=O)Nc2ccc(S(=O)(=O)NC3CCCCC3)cc21 (stereo not given)	-22.6%	-6.1%
O=C(O)CCC(=O)NNC(=O)CCC(=O)NCc1ccccc1	·	-9.6%
